# gsp ag: qHTS for Agonist of gsp, the Etiologic Mutation Responsible for Fibrous Dysplasia/McCune-Albright Syndrome: qHTS; gsp mutant cells, cAMP HTRF, 30 min; control for the full effect not named in the record; Potency, µM (series often up to 76.9 µM), without a hit: at the highest dose activation (cAMP increase), hits mostly activators; hit rate 0.13% among 340,000; AID 624287, 2012; active = well fitted activation curve with a large enough effect; inconclusive = small, poorly fitted or top-dose-only effect, or another doubt; inactive = no such curve, though single readings can be large or run the other way; cell line not stated here;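 further: phosphodiesterase inhibitor Ro 20-1724 added with compounds to block cAMP breakdown; potency means the concentration at half of the fitted maximal effect; nearly all actives have a fitted effect of over 60% in size; about a fifth of the inactives were tested at one dose only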
#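 Cells stably selected in G418 were plated at 2000/well, grown 16-24 hr, then given compounds in DMSO with the PDE inhibitor […] (300 uM solution added) for 30 min at 37C; cAMP was read by HTRF.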
# gsp antag: qHTS for Antagonists of gsp, the Etiologic Mutation Responsible for Fibrous Dysplasia/McCune-Albright Syndrome: qHTS. gsp-mutant cells, cAMP HTRF, 30 min; control for the full effect not named in the record. Potency, µM (doses to about 76.9 µM), inactives show at the highest dose activity change, negative = inhibition, actives largely listed as inhibitors. hit rate 0.4% among 340,000; active = falling curve of any shape with a large fitted effect; inconclusive = falling curve, mostly with a smaller effect; inactive = flat or rising curve; cell line not stated here;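 further: intracellular cAMP measured with PDE inhibitor Ro 20-1724 present during compound exposure; potency means the concentration at half of the fitted maximal effect; on the % scale 0 is the no-effect control and ±100 the full control effect; nearly all actives have a fitted effect of over 65% in size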
#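 HTRF cAMP read-out (cAMP-d2 plus anti-cAMP antibody-K in lysis buffer, 30 min RT). Before lysis, cells are exposed to compounds with […] for 30 min at 37C in DPBS containing Ca/Mg, BSA and Tween 20.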
# Menin-MLL FL inh: qHTS Assay for Inhibitors Targeting the Menin-MLL Interaction in MLL Related Leukemias: Competition With Fluorescein Labeled MLL-derived Peptide | 290,000 tested, under 10 active | Fluorescence polarization, fluorescein-MLL peptide displacement from menin | FP activity change, % at 61.4 µM; inconclusive = falling polarisation curve, or a change in total fluorescence; inactive = total fluorescence flat and polarisation flat or rising; no compound was filed as active; the % refers to the polarisation; negative = inhibition;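 further: % of control where 0% means no effect; inhibitors lower the polarisation; unlabelled MLL peptide was the positive control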
# ClpP mod: qHTS Assay for Activators of ClpP; ATP-dependent Clp protease proteolytic subunit (Bacillus subtilis (strain 168)), P80244; purified B. subtilis ClpP, FRET peptide cleavage, 20 min; Potency, µM (series often up to 57.5 µM), inactives show at the highest dose activity change, negative = active; hit rate 1.9% among 340,000; active = well fitted falling curve with a large enough effect; inconclusive = small, poorly fitted or top-dose-only effect; inactive = no such curve, though single readings can be large or run the other way; further: potency means the concentration at half of the fitted maximal effect; the source files actives as falling curves though it sought activators and does not explain the sign; nearly all actives have a fitted effect of over 65% in size; many hits overshoot -100%
# Target sequence (P80244 whole entry, looked up): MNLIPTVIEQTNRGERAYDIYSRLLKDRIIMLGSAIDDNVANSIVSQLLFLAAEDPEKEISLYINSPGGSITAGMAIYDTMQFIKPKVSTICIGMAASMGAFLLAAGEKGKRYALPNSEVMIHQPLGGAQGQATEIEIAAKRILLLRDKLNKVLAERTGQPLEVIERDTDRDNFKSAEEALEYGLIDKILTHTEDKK
#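 Purified B. subtilis ClpP, 10 microg/mL final in Tris/HCl pH8 with KCl, BSA, glycerol and Tween-20, cleaved an Abz/nitrotyrosine-quenched decapeptide. Fluorescence (ex 320, em 430) was read at 0 and 20 min at room temperature. Delta was normalized to 5.8 microM ADEP and DMSO/no-enzyme controls.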
# Sfp inh: qHTS Assay for Inhibitors of Bacillus subtilis Sfp phosphopantetheinyl transferase (PPTase); Biochemical Sfp PPTase activity, qHTS; Potency, µM, for the others: max response, negative = inhibition, usual class: inhibitors; hit rate 3.5% among 310,000; active means well fitted inhibition curve with a large enough effect; inconclusive means small, poorly fitted or top-dose-only effect, or another doubt; inactive means no such curve, though single readings can be large or run the other way;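 further: the enzyme is Sfp with the accession as filed and its product quenches rhodamine fluorescence; potency means the concentration at half of the fitted maximal effect; 0% = enzyme reaction without inhibitor and -100% = no enzyme wells; top concentration of the series not given in the record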
#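 Reaction rates are the 30-min fluorescence difference (ex 525, em 598 nm) in wells containing 15 nM Sfp, 5 uM rhodamine-CoA and 12.5 uM BHQ-2-YbbR at pH 7.6 with 10 mM MgCl2.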
# D2 PAM: Beta-Arrestin HTS for Positive Allosteric Modulators of the Human D2 Dopamine Receptor: Potentiators; D(2) dopamine receptor (Homo sapiens), P14416; DiscoveRx D2 beta-arrestin cells, luminescence, 90 min; 100% = 57 uM dopamine signal; potentiation, % (no concentration beside the values); hit rate 0.23% among 360,000; AID 624464, 2012; active = potentiation of 50% or more; inconclusive = 30% to 50%; inactive = 30% or less;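 further: compound concentration not given in the record; tested on top of an EC20 dose of dopamine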
#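 PathHunter D2 cells, attached overnight at 37 deg C, received compound in DMSO plus dopamine at EC20 (50 nM final) for 90 min at 37 deg C. Beta-arrestin recruitment was read as luminescence after 1 h with detection reagent at ambient temperature.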
# TRPV1 PAM: HTS Assay for Compounds that Act as Potentiators of the Vanilloid Receptor 1; TRPV1-expressing cells, Fluo-8 calcium influx, capsaicin EC20 potentiation; host cell line not named in the record; control for the full effect not named in the record; potentiation, % at 8.33 µM; hit rate 0.02% among 320,000; active means potentiation above 80%; inconclusive means 30% to 80%; inactive means below 30%; further: 0% is about no effect
# Target sequence (Q8NER1 whole entry, looked up): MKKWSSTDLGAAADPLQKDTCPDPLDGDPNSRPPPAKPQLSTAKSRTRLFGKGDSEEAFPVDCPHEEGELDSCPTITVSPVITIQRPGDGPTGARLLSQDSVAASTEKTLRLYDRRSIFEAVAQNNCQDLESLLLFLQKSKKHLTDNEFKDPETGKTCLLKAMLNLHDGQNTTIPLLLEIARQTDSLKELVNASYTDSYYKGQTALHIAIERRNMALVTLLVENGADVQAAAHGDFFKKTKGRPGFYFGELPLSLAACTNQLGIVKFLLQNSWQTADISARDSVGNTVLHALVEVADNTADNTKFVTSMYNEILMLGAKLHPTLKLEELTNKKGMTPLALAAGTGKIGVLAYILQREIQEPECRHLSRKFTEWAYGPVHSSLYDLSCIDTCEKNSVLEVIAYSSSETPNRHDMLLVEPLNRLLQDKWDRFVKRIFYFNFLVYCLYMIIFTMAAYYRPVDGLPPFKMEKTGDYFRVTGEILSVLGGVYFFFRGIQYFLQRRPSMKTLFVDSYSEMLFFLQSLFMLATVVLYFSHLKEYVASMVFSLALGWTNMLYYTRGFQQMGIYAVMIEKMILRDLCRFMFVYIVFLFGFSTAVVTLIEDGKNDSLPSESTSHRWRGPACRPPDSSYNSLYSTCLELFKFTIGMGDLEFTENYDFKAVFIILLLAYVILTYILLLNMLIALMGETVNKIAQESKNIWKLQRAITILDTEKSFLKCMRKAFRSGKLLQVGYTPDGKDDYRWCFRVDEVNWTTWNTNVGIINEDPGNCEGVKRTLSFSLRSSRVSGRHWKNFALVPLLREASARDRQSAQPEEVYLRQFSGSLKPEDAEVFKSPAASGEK
#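 Cells expressing TRPV1 were dye-loaded with Fluo-8 and read kinetically: 10 s baseline, 3 min after compound (agonist portion), then 2 min after EC20 capsaicin (allosteric enhancer portion). Calcium-bound dye fluorescence at 480/520 nm.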
# * = called active by the depositor; ? = inconclusive; · = not tested or not shown; [ ] = remark or other dose. No enrichment for hits; any-hit rate near 5.1%.
# Short forms – A = gsp ag; B = gsp antag; C = Menin-MLL FL inh; D = ClpP mod; E = Sfp inh; F = D2 PAM; G = TRPV1 PAM
CCOc1ccc(OCc2ccc(C(=O)Nc3cccnc3)o2)cc1
  A: -24%	B: -25%	C: 4.6	D: 3.7%	E: -14%	F: 11	G: -16

O=C(c1ccc2c(=O)n(C3CCCC3)c(=S)[nH]c2c1)N1CCCCCC1
  A: -9%[15.4 µM]	B: 32µM*	C: -0.9	D: ·	E: -3%	F: -1	G: 7

O=c1oc2ccc3ccccc3c2c2c1SC(C(F)(F)F)C2 (stereo unspecified)
  A: -16%	B: 4%[15.4 µM]	C: 0.5	D: 35µM*	E: 15%	F: -11	G: 11

NC1=NC[C@@H](Cc2ccc(O)cc2)N1CCc1cccc(F)c1
  A: ·	B: 9%	C: 1.1	D: -0.5%	E: 14%	F: -55	G: -11

Cc1noc(C)c1COC(=O)CCN1c2ccccc2Sc2ccccc21
  A: 2%	B: -16%	C: -0.3	D: -8.8%	E: -5%	F: -28	G: 3

CC1CCc2nn(CC(=O)Nc3c(F)cc(F)cc3Br)cc2C1 (stereo unspecified)
  A: -24%	B: 6%	C: 0.5	D: 0.0%	E: 7%	F: -3	G: -1

O=C(Nc1ccc(F)cc1)Nc1cc(OCC(F)(F)F)cc(OCC(F)(F)F)c1
  A: 4%	B: -26%	C: 3.1	D: -1.3%	E: 5%	F: 3	G: 14

CC(C)C(=O)N1CCN(c2ccccc2NC(=O)COc2ccccc2)CC1
  A: 7%[15.4 µM]	B: -21%	C: -1.1	D: -3.1%	E: 2%	F: -1	G: -31

COC(=O)Cc1cn(-c2ncc(C(F)(F)F)cc2Cl)c2ccccc12
  A: 6%	B: -2%	C: 4.7	D: -16%	E: 15%	F: -4	G: -2

Cc1ccc2nc(-c3ccc(NS(=O)(=O)c4ccc(F)c(F)c4)cc3)sc2c1
  A: 2%	B: -15%	C: 5.8	D: -13%	E: -4%	F: 9	G: 17

CCN(CC)S(=O)(=O)c1cccc(NC(=O)COC(=O)c2cc(=O)c3ccccc3o2)c1
  A: 4%	B: -13%	C: 0.6	D: 1.5%	E: 7%	F: -14	G: 0

Cc1ccc(C)c(C(=O)COC(=O)c2ccc(Br)o2)c1
  A: 5%	B: -13%	C: -1.2	D: 0.1%	E: -1%	F: -11	G: -5

O=C(ONC1=NCCCCC1)c1c(F)cccc1F
  A: -23%	B: 6%	C: -0.8	D: 0.2%	E: 12%	F: 65*	G: -25

CC1CCC(C(C)C)C(OC(=O)COC(=O)c2ccc(N)cc2)C1 (stereo unspecified)
  A: -24%	B: -18%	C: 3.2	D: -10%	E: 21%	F: -4	G: -9

Cc1ccc(NC(=O)c2cccs2)cc1NC(=O)c1ccc(F)cc1
  A: -46%[inhibitor]	B: -9%	C: -0.8	D: ·	E: 12%	F: -6	G: 9

CCN(CC)S(=O)(=O)c1cccc(C(=O)N/N=C/c2ccc(OC)c(O)c2)c1
  A: -19%	B: 2%	C: 8.4	D: ?	E: 2%	F: -7	G: -21

O=[N+]([O-])c1ccc(O)c(-c2nc(-c3ccccc3)c(-c3cccs3)[nH]2)c1
  A: 27%	B: ?	C: 3.5	D: -1.7%	E: 7%	F: -5	G: -3

CSCC[C@H](NC(=O)COc1ccc(Cl)cc1)C(=O)N1CCC2(CC1)NCCc1[nH]cnc12
  A: 1%	B: 4%	C: 1.1	D: 0.7%	E: 15%	F: -5	G: -3

CCCCOc1ccccc1C1C(C(=O)OC)=C(C)N(C)C(C)=C1C(=O)OC
  A: -28%	B: -14%	C: 5.9	D: -1.4%	E: -10%	F: -23	G: -2

NNC(=O)CCC(=O)Nc1ccccc1
  A: -36%[inhibitor]	B: 6%	C: -2.0	D: -2.3%	E: 9%	F: -13	G: -3

CCOC(=O)c1c(NC(=O)COC(=O)Cc2c[nH]c3ccccc23)sc(C(=O)N(C)C)c1C
  A: 3%[15.4 µM]	B: ?	C: ·	D: ·	E: ·	F: 9	G: 4

Cn1cc(C(=O)NC2CCCCC2)c(=O)c2cc(S(=O)(=O)N3CCOCC3)ccc21
  A: 25%	B: 7%	C: ·	D: 0.0%	E: 3%	F: 4	G: -1

COC(=O)c1ccc(CSc2nc3sc(C)c(C)c3c(=O)[nH]2)cc1
  A: -12%	B: 6%	C: 1.4	D: -0.2%	E: 6%	F: -8	G: 3

COc1ccc(N2Cc3ccccc3C2)cc1Cl
  A: ?	B: -7%	C: 3.9	D: -3.9%	E: -9%	F: 8	G: -11

CCCOc1ccc(/C=c2\sc3ncnn3c2=O)cc1
  A: -20%[15.4 µM]	B: ·	C: -2.3	D: ·	E: 9%	F: -2	G: -7

# One compound at a time, from the list above. Values in the order: gsp ag, gsp antag, Menin-MLL FL inh, ClpP mod, Sfp inh, D2 PAM, TRPV1 PAM
# NC1=NC[C@@H](Cc2ccc(O)cc2)N1CCc1cccc(F)c1 reads ·, 9%, 1.1, -0.5%, 14%, -55, -11
# O=[N+]([O-])c1ccc(O)c(-c2nc(-c3ccccc3)c(-c3cccs3)[nH]2)c1 reads 27%, ?, 3.5, -1.7%, 7%, -5, -3
# NNC(=O)CCC(=O)Nc1ccccc1 reads -36%[inhibitor], 6%, -2.0, -2.3%, 9%, -13, -3

# Further results follow.
# Short forms – A = gsp ag; B = gsp antag; C = Menin-MLL FL inh; D = ClpP mod; E = Sfp inh; F = D2 PAM; G = TRPV1 PAM
CCCN1Cc2cccc(C(=O)NCCc3ccccc3)c2C1=O
  A: 24%	B: -2%	C: -5.2	D: ·	E: 0%	F: -3	G: -1

CC(C)CC[n+]1ccn(-c2nc3ccccc3nc2[N-]S(=O)(=O)c2ccc(Cl)cc2)c1
  A: 6%[15.4 µM]	B: -20%	C: -0.2	D: ·	E: 21%	F: -12	G: 21

CCC(=O)Nc1cc(OC)c(NC(=O)c2ccccc2)cc1OC
  A: -3%	B: -3%	C: -0.9	D: -0.7%	E: 20%	F: ?	G: 3

CN(C(=O)CSc1nnc(C(F)(F)F)n1C)c1c(N)n(Cc2ccccc2)c(=O)[nH]c1=O
  A: -4%	B: ·	C: ·	D: -1.5%	E: ·	F: -9	G: ·

Cc1ccc(OCCC(=O)OCC(=O)NCCNC(=O)COC(=O)CCOc2ccc(C)cc2)cc1
  A: -35%[inhibitor]	B: ·	C: ·	D: -1.5%	E: ·	F: -16	G: ·

CCOC(=O)c1ccc(NS(=O)(=O)c2c(C)n(C)c(=O)n(C)c2=O)cc1
  A: -19%	B: -3%	C: 2.4	D: -0.7%	E: 8%	F: 1	G: 3

O=C(Cn1nnc(-c2cccs2)n1)Nc1ccccc1C(F)(F)F
  A: 18%	B: 9%	C: 1.8	D: -0.3%	E: 6%	F: -29	G: -1

CC(CCn1cccn1)NC(=O)CCc1nnc(C2CCCCC2)o1 (stereo unspecified)
  A: -1%	B: 3%	C: -8.8	D: 0.1%	E: 13%	F: -8	G: -9

COc1cc(/C=N/Nc2ccccc2C(F)(F)F)ccc1O
  A: 5%	B: 4%	C: 1.2	D: -2.9%	E: -5%	F: -1	G: 0

C=CCNC(=O)c1onc(CSc2ccc(F)c(F)c2)c1C(=O)O
  A: ·	B: -5%	C: -1.2	D: -0.6%	E: -3%	F: 1	G: 11

COc1cc2c(cc1NC(=O)CC1SC(N3CCCC3)=NC1=O)oc1ccccc12 (stereo unspecified)
  A: 13%	B: -4%	C: 6.7	D: -13%	E: 1%	F: -9	G: -1

Cc1ccc(N2C(=O)CC3(CC4C=CC3C4)C2=O)cc1 (stereo unspecified)
  A: -18%	B: -2%	C: 3.4	D: 1.2%	E: 8%	F: 13	G: 3

COC(=O)Cc1c(-c2[nH]c3ccccc3c2CC(=O)OC)[nH]c2ccccc12
  A: 23%	B: -8%	C: ·	D: 28µM*	E: ·	F: -43	G: ·

COC(=O)C1=C(C)N=c2s/c(=C/c3ccoc3)c(=O)n2C1c1ccccc1 (stereo unspecified)
  A: -11%	B: -23%	C: ?	D: 0.5%	E: 79µM*	F: -8	G: 7

CCOC(=O)c1cnc(-n2nc(C)cc2C)nc1Nc1ccc(O)cc1
  A: 2%	B: 11µM*	C: -5.5	D: 1.2%	E: 0%	F: 1	G: 8

O=C(CCl)N(c1ccccc1)c1c[nH]c2ccccc12
  A: -21%	B: -2%	C: 2.4	D: -1.9%	E: 7%	F: -13	G: 14

CN1CCN(S(=O)(=O)c2ccc(=O)[nH]c2)CC1
  A: -2%	B: 0%	C: -1.4	D: 0.8%	E: 6%	F: 7	G: -4

O=C(c1ccc(F)cc1Cl)N(c1ccccn1)C1CCCCC1
  A: 10%[15.4 µM]	B: 5%	C: 3.1	D: -3.1%	E: 4%	F: 0	G: 1

Cc1cc(SCC(=O)c2cc3ccccc3o2)nc2ccccc12
  A: 16%	B: -5%	C: ?	D: -14%	E: -19%	F: 11	G: 0

CN(CCC#N)C(=O)CSc1nnc(-c2c[nH]c3ccccc23)o1
  A: 8%	B: -2%	C: 3.9	D: -1.3%	E: 14%	F: -5	G: -5

CCOC(=O)/C(CCC[N+](C)(CC)CC)=N\O
  A: -4%	B: 9%	C: 5.0	D: ?	E: -5%	F: -7	G: 12

Cc1cc(SCC(=O)Nc2cccc(S(=O)(=O)N3CCOCC3)c2)nc2ccccc12
  A: -23%	B: -11%	C: 15	D: -3.9%	E: -22%	F: -7	G: 15

O=C(COc1cc(Cl)c(Cl)cc1Cl)Nn1cnnc1
  A: 22%	B: -7%	C: 3.9	D: 3.3%	E: 21%	F: -4	G: 13

O=C(Nn1cnc2ccccc2c1=O)C1CCCCC1
  A: -40%[inhibitor]	B: 2%	C: -0.4	D: -14%	E: ?	F: -1	G: -3

Cc1ccc(NC2CCCN(C(=O)CN3C(=O)CSC3=O)C2)cc1C (stereo unspecified)
  A: 26%	B: 0%	C: ·	D: 1.5%	E: 20%	F: -19	G: -4

# Screens: PubChem, National Center for Advancing Translational Sciences (NCATS)
